Assay outcomes deposited in PubChem BioAssay by National Center for Advancing Translational Sciences (NCATS).
HPGD block: inhibitors of human 15-hydroxyprostaglandin dehydrogenase (HPGD); purified HPGD, NADH fluorescence kinetic, PGE2 substrate; AID 894; Potency, µM, without a hit: top-dose activity change, negative = inhibition, hits mostly inhibitors; 4.3% of 150,000 active; active = well fitted inhibition curve with a large enough effect (not every such curve was filed as active); inconclusive = small, poorly fitted or top-dose-only effect, or another doubt; inactive = no such curve, though single readings can be large or run the other way;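 further: top concentration of the series not given in the record; plate controls included wells without enzyme; inactives centre near -10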
Target sequence (P15428 whole entry, looked up): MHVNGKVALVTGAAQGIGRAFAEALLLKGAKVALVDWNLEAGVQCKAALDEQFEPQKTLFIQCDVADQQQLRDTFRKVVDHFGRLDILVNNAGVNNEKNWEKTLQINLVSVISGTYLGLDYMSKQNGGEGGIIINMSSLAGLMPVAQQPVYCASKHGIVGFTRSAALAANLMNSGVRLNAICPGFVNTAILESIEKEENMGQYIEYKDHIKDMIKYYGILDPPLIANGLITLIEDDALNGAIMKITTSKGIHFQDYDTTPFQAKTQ
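20 nM HPGD preincubated 15 min at room temperature with compound in 50 mM Tris-HCl pH 8, 0.01% Tween 20. Started with 1 mM NAD+ and 30 uM prostaglandin E2; NADH fluorescence (360/450 nm) read 5 times over 30-s intervals, last minus first.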
An asterisk follows results filed as active; ? = inconclusive; & = joins results of further samples. On the % scale 0 is the no-effect control and ±100 the full control effect; potency means the concentration at half of the fitted maximal effect.

HPGD block | compound
-10% | CCOc1ccc(/C=N/NC(=O)CN2CCSCC2)cc1
-8% | CC1(C)OCC([C@H](O)C2=CCCCC2=O)CO1
-19% | Cc1ccc2nc(NC(=O)CNS(=O)(=O)c3ccc(Br)s3)sc2c1
18µM* | O=C1CN(C(=O)COC(=O)CCSc2ccccc2Cl)c2ccccc2N1
-6% | CC(NC(=O)COC(=O)C1CCN(S(=O)(=O)c2ccccc2C(F)(F)F)CC1)c1ccccc1 (centres undefined)
-7% | COC(=O)CCC(=O)OC1(C)C(=O)C2=CN(C3CCCC3)C(c3ccc(OC)cc3)=CC2=C(Br)C1=O (centres undefined)
-3% | O=C1C=C(c2ccccc2)CCC1
5% | COc1ccc(CCNc2ccncn2)cc1
-13% | CCOC(=O)C1=C(C)NC(=O)NC1c1ccco1 (centres undefined)
? | COCOc1c2c(c(OCOC)c3c(OCOC)cccc13)/C(=N/NS(C)(=O)=O)C1=C2CCCC1
-14% | CCCCSc1nnc2n(CCc3ccccc3)c(=O)c3c4c(sc3n12)COC(C)(C)C4
? | Cn1c(N)c(C(=O)COC(=O)c2cc(C3CC3)nc3ccccc23)c(=O)n(Cc2ccccc2)c1=O
-13% | CC(C)CNC(=O)C1CCCN(S(=O)(=O)c2ccc(-n3cnnn3)cc2)C1 (centres undefined)
-16% | O=C(NCc1ccco1)C(c1ccco1)N(Cc1cccs1)C(=O)Cn1nnc2ccccc21 (centres undefined)
0%&-8%&-7%&1% | Nc1c(Br)cc(Br)cc1CNC1CCC(O)CC1 (centres undefined)

The listing continues:
HPGD block | compound
-9% | CCOc1ccc(N2C(=O)C3C(C2=O)C3(c2ccccc2)c2ccccc2)cc1 (centres undefined)
-18% | N[C@@H](Cc1cc(CP(=O)(O)O)cc(-c2ccccc2Cl)c1)C(=O)O
-9% | Cc1ccc(S(=O)(=O)NC(c2ccccc2)C(C)C(=O)n2nc(C)cc2C)cc1 (centres undefined)
-18% | COc1ccc(/C=C/C(=O)Nc2cccc(N3CCOCC3)c2)cc1OC
? | Cc1cccc(-n2c(-c3ccco3)nc3nc4ccccc4nc32)c1
-12% | CCC(C)N1C(=O)CCC1C(=O)NCc1ccc2c(c1)OCO2 (centres undefined)
-17% | COc1ccc2c(c1)-c1nc(/N=C/c3cccc(OC)c3O)sc1CC2
-32% | CCN1c2ccccc2NC2N=C(OC)C(c3ccccc3)C21 (centres undefined)
-19% | COc1ccc(OC)c(NC(=O)c2ccc(NS(C)(=O)=O)cc2)c1
-17% | CC1CN(CC(O)COc2ccccc2C(C)(C)C)CC(C)O1 (centres undefined)
-8% | N#C/C(Cn1c[n+](NC(=O)Nc2ccccc2)cn1)=N/O
3% | O=C(NNS(=O)(=O)c1ccccc1C(F)(F)F)c1cccc(S(=O)(=O)Nc2ccccc2Cl)c1
-20% | O=C(CN1CCN(c2ccc(O)cc2)CC1)NC1CCCc2ccccc21 (centres undefined)
40µM* | CCC(C)NC(=O)c1ccc(N2CCC3(CC2)OCCO3)c([N+](=O)[O-])c1 (centres undefined)
-24% | O=[N+]([O-])c1cccc(S(=O)(=O)c2ccc(N3CCCCC3)c([N+](=O)[O-])c2)c1

Part of the list above, set out differently:
SMILES,HPGD block
Cc1cccc(-n2c(-c3ccco3)nc3nc4ccccc4nc32)c1,?
COc1ccc(/C=C/C(=O)Nc2cccc(N3CCOCC3)c2)cc1OC,-18%

Going on with the list.
HPGD block | compound
-8% | CCOc1ccc(C(=O)NCCn2cc(SCC(=O)Nc3cc(C)on3)c3ccccc32)cc1
-3% | Cn1c(SCC(=O)N2c3ccccc3CCc3ccccc32)nnc1-c1cc2ccccc2cc1O
-3% | CCOC(=O)CSc1nc(NC#N)nc(N(CC)CC)n1
? | C=CCn1c(COc2cccc3ccc(C)nc23)nnc1SCC(N)=O
-16% | Cc1cccc(NC(=O)c2cccc(Cn3cc(Br)c([N+](=O)[O-])n3)c2)c1C
40µM* | CCOC(=O)C1(C)/C(=N/Nc2ccccc2Cl)C(=O)C(=O)N1c1ccccc1 (centres undefined)
-6% | CCOC(=O)c1sc(SCC(=O)Nc2ccc(N(C)C)cc2)nc1N
-7% | O=C(Cn1cnc2c(oc3ccccc32)c1=O)N1CCCc2ccccc21
-6% | COc1ccc(NC(=O)c2ccccc2-c2ccc(C(F)(F)F)cc2)cc1S(=O)(=O)N1CCOCC1
-3% | O=C(CSc1nnnn1-c1ccccc1)Nc1ccc(Cl)cn1
? | O=C1c2ccccc2C(=O)N1OS(=O)(=O)c1ccccc1
-13% | COc1ccc2cc3cc(C(=O)Nc4ccc5c(c4)OCO5)oc3nc2c1
-12% | CC(C)(C)c1cc(C(=O)N/N=C/c2ccc(O)cc2)n(-c2ccccc2)n1
0% | Cc1cc(=O)[nH]c(SC(C(=O)O)c2ccccc2)n1 (centres undefined)
-15% | COc1ccc(N/C=C/C(=O)c2sc(-c3ccccc3)nc2C)cc1

4 compounds already listed, arranged by heavy-atom count, low to high.
HPGD block | compound
? | O=C1c2ccccc2C(=O)N1OS(=O)(=O)c1ccccc1
-7% | O=C(Cn1cnc2c(oc3ccccc32)c1=O)N1CCCc2ccccc21
40µM* | CCOC(=O)C1(C)/C(=N/Nc2ccccc2Cl)C(=O)C(=O)N1c1ccccc1 (centres undefined)
-3% | Cn1c(SCC(=O)N2c3ccccc3CCc3ccccc32)nnc1-c1cc2ccccc2cc1O

Remaining list, next part.
HPGD block | compound
-17% | COc1cccc(-c2cc(C(=O)N3CC4(C)CC3CC(C)(C)C4)no2)c1 (centres undefined)
-20% | C=CCNc1nc(-c2cc3ccccc3o2)cs1
-7% | Nc1cc(=O)[nH]c(SCc2nnnn2-c2ccc(Cl)cc2)n1
-3% | CCOc1ccc(C(=O)Nc2ccc3c(c2)OCO3)cc1OCC
-6% | CCn1c(NCc2ccccc2NS(=O)(=O)c2ccc(C)cc2)nc2ccccc21
-14% | O=C1Cc2ccccc2C(c2ccccc2)N1 (centres undefined)
-10% | OB(O)c1cc2ccccc2s1
16µM* | Cc1ccccc1-n1c(-c2csc3ccccc23)n[nH]c1=S
-7% | c1ccc(-c2n[nH]nc2-c2ccccc2)cc1
-25% | CCc1ccccc1NC(=O)CSc1n[nH]c(C)c1[N+](=O)[O-]
16µM* | CC(C(=O)O)N1C(=O)/C(=C/C=C/c2ccco2)SC1=S (centres undefined)
-9% | COc1ccc(N2CCC(CNC(=S)Nc3cccc(C)c3)C2)cc1 (centres undefined)
5% | COc1ccc(C(=O)NCc2c(CC(C)C)oc(C)c2C(=O)O)cc1
-23% | O=C(CN(C1CCCCC1)S(=O)(=O)c1ccc(F)cc1)Nc1ccc2c(c1)OCO2
-2% | CCOc1ccc(CC(=O)C2C(=O)CCCC2=O)cc1OCC

Additional results follow.
HPGD block | compound
-4% | O=C(COC(=O)c1cccnc1)Nc1ccc(F)cc1
-9% | O=C(NC1CCCCC1)C(c1ccc(F)cc1)N(CCc1ccccc1)C(=O)CN1C(=O)c2ccccc2S1(=O)=O (centres undefined)
-14% | O=C1C(=Cc2cccn2-c2ccc(O)cc2)C(=O)c2ccccc21
? | COc1cc(/C=C(/C#N)c2nc3ccccc3[nH]2)ccc1OC(=O)c1ccco1
-2% | CC1CCC(NC(=O)c2ccc(S(C)(=O)=O)cc2)CC1 (centres undefined)
-12% | CCN(CC)c1ccc(NC(=O)CC2Oc3ccccc3NC2=O)c(C)c1 (centres undefined)
4% | CCCCC(=O)O[C@]1(C(=O)CO)CC[C@H]2[C@@H]3CCC4=CC(=O)CC[C@]4(C)[C@H]3[C@@H](O)C[C@@]21C
-3% | O=C(NC1CCCCC1)N1CCCC1
-4% | CCOc1cc(C)c(Cl)cc1S(=O)(=O)NC1CC(C)(C)NC(C)(C)C1
-8% | O=C1CC(c2ccccc2F)c2cc3c(cc2N1)CCC3 (centres undefined)
-10% | O=C(NCc1ccccn1)c1cc(-c2ccc(Br)cc2)nc2ccccc12
-7% | Cc1[nH]c(=O)[nH]c(=O)c1S(=O)(=O)N(C)Cc1ccccc1
-11% | CCC(C)Sc1nc2c(c(=O)n1C)SC(C)C2 (centres undefined)
-21% | COC(=O)c1c(NS(C)(=O)=O)sc2c1CCCC2
? | O=C(O)c1cccc(-n2cccc2/C=C2\SC(=O)N(Cc3ccccc3F)C2=O)c1

Next section
HPGD block | compound
? | COc1cc(OC)c2c(OC)c(-c3ccc4c(c3)OCO4)c(=O)oc2c1
10µM* | Cc1ccc(S(=O)(=O)N2C(=O)C(c3ccccc3)SC2=Nc2ccccc2)cc1 (centres undefined)
-12% | COc1ccc(-c2nnc(SCC(=O)c3cc(C)n(Cc4cccs4)c3C)o2)cc1
-31% | CC1CN(Cc2ccccc2)c2ccccc2NC1=S (centres undefined)
? | c1csc(-c2nn3c(Cn4nnc5ccccc54)nnc3s2)c1
-6% | CN(c1ccccc1C(=O)NCc1ccco1)S(C)(=O)=O
-24% | CCCCNC(=O)CSc1nnc(-c2ccc(S(=O)(=O)N3CCCC3)cc2)n1C
-11% | CCN1CCn2c3c(c4cc(C)ccc42)CCCC31 (centres undefined)
-10% | O=c1cc(CO)oc(CN2CCCC2)c1O
-4% | Cc1cc(Nc2ccc(F)cc2C)n2ncnc2n1
-12% | CCCCCC(=O)Nc1ccc(S(=O)(=O)Nc2nccnc2OC)cc1
? | COc1cc(CNc2ccc3[nH]c(=O)[nH]c3c2)cc(Cl)c1OCC(=O)NC(C)(C)C
-9% | CN1C/C(=C/c2ccsc2)C(=O)/C(=C/c2ccsc2)C1
? | O=C(CSc1nc(-c2ccc(F)cc2)cs1)N1CCN(C(=O)c2ccco2)CC1
-16% | COc1ccc(/C=C(\C#N)C(N)=O)c(OC)c1

Reprinted from the part before: six entries; new compounds follow.
HPGD block | compound
-4% | Cc1cc(Nc2ccc(F)cc2C)n2ncnc2n1
-12% | CCCCCC(=O)Nc1ccc(S(=O)(=O)Nc2nccnc2OC)cc1
? | COc1cc(CNc2ccc3[nH]c(=O)[nH]c3c2)cc(Cl)c1OCC(=O)NC(C)(C)C
-9% | CN1C/C(=C/c2ccsc2)C(=O)/C(=C/c2ccsc2)C1
? | O=C(CSc1nc(-c2ccc(F)cc2)cs1)N1CCN(C(=O)c2ccco2)CC1
-16% | COc1ccc(/C=C(\C#N)C(N)=O)c(OC)c1
-15% | O=C(c1ccc2c(c1)OCO2)N1CCN(c2ccc(Cl)cc2)CC1
-3% | C/C(=N\NC(=O)C(O)(c1ccccc1)c1ccccc1)c1ccc(C)o1
-8% | Cc1cc(Br)ccc1OCC(=O)NNC(=O)c1cnccn1
-9% | COc1ccccc1OCCC(=O)OCCN1C(=O)c2ccccc2C1=O
-2% | Cc1ccc(C)c(C(C)NC(=O)c2ccccc2Br)c1 (centres undefined)
14µM* | COc1cccc(-n2nnc3c(=O)n(Cc4cccc(F)c4)cnc32)c1
-13% | c1ccc(-c2noc(-c3ccccc3-c3ccccc3)n2)cc1
-1% | CCn1c(NC2CCCCC2)nc2ccccc21
-12% | CC(C)c1nc2oc3c(N4CCN(C)CC4)ncnc3c2c2c1CCC2
? | O=C1Cc2ccccc2Sc2ccccc21
-7% | COc1ccc(OC)c(-c2c(=O)n(OCc3ccccc3Br)c3ccccc3[n+]2[O-])c1
-3% | COc1ccc(CNC(=O)CN2C(=O)C(C)N(c3ccc(C)cc3)C2=O)cc1 (centres undefined)
-1% | CC1(C)CC(C(=O)NCCC(c2ccccc2)c2ccco2)CCO1 (centres undefined)
? | COC(=O)c1[nH]c2ccc(C)cc2c1NC(=O)CN1CCN(C(=O)c2ccccc2)CC1
-5% | COC(=O)c1sc(S(=O)(=O)N2CCC(C(=O)O)CC2)c(C(=O)OC)c1C

Next part:
HPGD block | compound
-7% | O=c1c(-c2cccc(Cl)c2)nc2cncnc2n1Cc1ccc(F)cc1
-7% | Nn1c(Cc2cccc3ccccc23)nnc1SC1CCOC1=O (centres undefined)
-10% | Cc1ccccc1N1CCN(S(=O)(=O)c2ccccc2)CC1
1% | CCn1nc(CC(=O)Nc2ccc(-n3cnnn3)c(OC)c2)c2ccccc2c1=O
0% | Cc1cccc(OCCCC(=O)Nc2ccc(N(C)C)cc2)c1
-12% | COc1ccc(C(CC(=O)NCCCN2CCOCC2)NS(=O)(=O)c2ccc(C)cc2)cc1 (centres undefined)
-5% | CCOC(=O)C1=NN(C(=O)c2ccccc2)C(O)(c2ccc(C)cc2)C1 (centres undefined)
14µM* | c1ccc(Cc2nnc3sc(C4COc5ccccc5O4)nn23)cc1 (centres undefined)
-4% | CCOc1ccc(C(=O)SC2=NCCS2)cc1
-3% | O=C(CCCn1c(=O)[nH]c2cc(Cl)ccc2c1=O)NCCC1=CCCCC1
-30% | O=C(CSC1=NCCN1)C1COc2ccccc2O1 (centres undefined)
-10% | O=C(CN1CCOCC1)Nc1cccc(Br)c1
-19% | O=c1c2[nH]c3cccc(Cl)c3c2ncn1CCN1CCCCC1
? | CN1C(=O)/C(=C2/C=Cc3ccccc3N2CCCS(=O)(=O)O)SC1=S
? | Cn1nnc2cc(C(=O)NC3CC3)ccc21
-19% | CC(C)(C)c1nc(NCCN2CCOCC2)c2nnn(Cc3ccccc3Cl)c2n1
-13% | CN(C)c1ccc(NC(=O)c2cn(-c3ccccc3)nc2-c2cccs2)cc1

These rows are one share of the data (hit frequency here may not be typical).
